Bioassay records deposited in PubChem by several laboratories.
VCAM-1 augmentation – enhancers of VCAM-1 display on endothelial cells, imaging, high-content imaging, pooled HUVEC, TNFa stimulus (AID 457); Pooled HUVEC, TNFa-induced VCAM-1 immunofluorescence imaging; hits of this screen are not shown here; calls only; hit rate 0.2% among 10,000;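 active = a top-ranked rise in VCAM-1 staining upheld on image or statistical review; inactive = the rest, including candidates rejected on review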;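 also: compounds tested at 5 µM in the well; cells exposed to compound for 24 hours before fixing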
FPRL1 binder – ligands of human FPRL1, also counter-screen for FPR ligands | P25090 | FPRL1-expressing cells, fluorescent ligand binding inhibition, flow cytometry | inhibition, %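 (tested at 6.7 µM)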 | hit rate 0.3% among 24,000 | AID 441;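 also: 0% = buffer alone and 100% = receptor blocker peptide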
Target sequence (P25090 whole entry, looked up): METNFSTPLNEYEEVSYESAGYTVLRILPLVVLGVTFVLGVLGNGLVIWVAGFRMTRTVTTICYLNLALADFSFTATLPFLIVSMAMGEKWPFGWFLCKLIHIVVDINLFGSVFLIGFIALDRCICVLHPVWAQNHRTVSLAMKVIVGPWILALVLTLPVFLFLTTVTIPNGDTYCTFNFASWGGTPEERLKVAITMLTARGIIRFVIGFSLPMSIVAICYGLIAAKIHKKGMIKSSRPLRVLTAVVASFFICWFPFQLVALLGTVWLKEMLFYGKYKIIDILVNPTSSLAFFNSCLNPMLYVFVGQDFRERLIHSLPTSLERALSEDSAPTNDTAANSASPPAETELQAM
VCAM-1 down imaging – inhibitors of TNFa-induced VCAM-1 surface display, imaging, high-content imaging, pooled HUVEC, TNFa stimulus (AID 456) | inhibition, % at 5 µM; hits with a dose series show IC50 in µM | HUVEC TNFa-induced VCAM-1 surface expression, immunofluorescence imaging; numbers were filed only for top-ranked candidate wells | hit rate 0.2% among 10,000;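 active = top tenth filtered wells with inhibition above zero that passed visual or statistical confirmation; inactive = the rest, including hits rejected on review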;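 also: 0% = stimulated vehicle wells and 100% = unstimulated cells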
VCAM-1 inhibition – suppression of endothelial VCAM-1 upregulation – cell-based, plate reader, pooled HUVEC, TNFa stimulus (AID 454) | HUVEC TNFa-induced VCAM-1 surface immunofluorescence, plate reader; numbers were filed only for top-ranked candidate wells | inhibition, % at 5 µM | hit rate 0.2% among 10,000;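 active = compound among top-ranked inhibitors of TNF-induced VCAM-1 adhesion protein staining, with the hit upheld by image or statistical review; inactive = the rest, including hits rejected on review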;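 also: 0% = TNFa with vehicle and 100% = cells without TNFa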
FPR binder – human FPR ligand, with FPRL1 counter-screen. inhibition, %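 (tested at 6.7 µM)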. FPR-expressing cells, fluorescent ligand binding, flow cytometry. hit rate 0.74% among 24,000. P21462;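 also: 0% = buffer wells and 100% = receptor blocker peptide wells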
Target sequence (P21462 whole entry, looked up): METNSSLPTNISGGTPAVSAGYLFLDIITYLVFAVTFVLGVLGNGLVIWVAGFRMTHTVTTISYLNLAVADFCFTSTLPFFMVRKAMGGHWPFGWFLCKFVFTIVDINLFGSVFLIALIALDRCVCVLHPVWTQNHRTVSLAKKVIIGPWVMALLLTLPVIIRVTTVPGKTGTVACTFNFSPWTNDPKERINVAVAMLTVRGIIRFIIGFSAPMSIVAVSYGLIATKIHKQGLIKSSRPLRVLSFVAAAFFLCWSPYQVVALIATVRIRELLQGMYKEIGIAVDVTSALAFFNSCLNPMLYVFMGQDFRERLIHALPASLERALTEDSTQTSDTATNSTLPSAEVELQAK
Active calls of the source: *; i = inactive; . = not tested or not shown.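 The calls were made as follows, unless noted: active = mean above 30%; inconclusive = self-fluorescent; inactive = the rest.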

SMILES	VCAM-1 augmentation	FPRL1 binder	VCAM-1 down imaging	VCAM-1 inhibition	FPR binder
CCCCc1ccc(NC(=O)COCC)cc1	i	7	i	i	5
COc1cccc(C2c3c(oc4ccc(F)cc4c3=O)C(=O)N2CCCN2CCOCC2)c1 (configuration not stated)	.	-3	.	.	-2
CC(C)(C)NC(=O)Cn1nnc(-c2ccc(S(C)(=O)=O)cc2)n1	.	1	.	.	0
Cc1nn(C)c(C)c1Sc1ccc(Br)cc1	.	-2	.	.	15
CCCCn1c(SCC(=O)Nc2cc(C)on2)nnc1-c1cccnc1	i	-1	i	i	8
CCN1C(=O)c2cccc3c(S(=O)(=O)Nc4ccccn4)ccc1c23	.	1	.	.	-3
COc1cc2c(=O)n(CC3CCCO3)c(=O)n(CC(=O)Nc3ccc(F)cc3F)c2cc1OC (configuration not stated)	.	-5	.	.	2
Cn1nc(-c2ccc(Cl)cc2)c2cc(C(=O)NCCN3CCOCC3)sc21	.	3	.	.	-1
CC1(C)CC(=O)c2cc(OCC(=O)NCc3cccnc3)ccc2O1	.	-2	.	.	-1
COC(=O)CNC(=O)c1nn(-c2cccc(OC)c2)c(=O)c2ccccc12	.	7	.	.	1
O=C(Nc1cccnc1N1CCOCC1)c1ccco1	i	-5	i	i	-2
CCOc1cc(/C=N/n2cnnc2)cc(Br)c1O	i	1	i	i	2
CC(C)CCNC(=O)CCn1nc(-c2ccccc2)ccc1=O	.	-3	.	.	-6
O=C(NCC(c1cccnc1)N1CCOCC1)c1cccs1 (configuration not stated)	i	5	i	i	-3
O=C(NCCCn1ccnc1)c1cc(C2CC2)on1	.	-1	.	.	-3
CSc1nc(C)c(Cl)c(C)c1C#N	.	-5	.	.	-13
Cc1ccc(NC(=O)C2CCCN2C(=O)Oc2ccccc2)cc1 (configuration not stated)	i	-3	i	i	-4
COc1ccc(-c2noc(COc3ccc4ccccc4c3Br)n2)cc1OC	i	-5	i	i	7
CC(C)OCCCNC(=O)c1ccc(NC(=O)C2CCCO2)cc1 (configuration not stated)	.	-7	.	.	-4
COc1ccc(NC(=O)CSc2nnc(Cn3c(=O)sc4ccccc43)n2C)c(OC)c1	.	6	.	.	0
Cc1[nH]n2c(=O)cc(C(C)(C)C)nc2c1-c1ccccc1	.	2	.	.	4
COC(=O)Cc1cc(=O)n2[nH]c(C)c(-c3ccccc3)c2n1	.	2	.	.	5
CCOC(=O)N1CCN(C(=O)CSc2nnc(-c3cccc(Cl)c3)o2)CC1	i	-8	i	i	-3
O=C(Cn1c(=O)[nH]n(-c2ccccc2)c1=O)N1CCCc2ccccc21	i	1	i	i	4
O=C(COC(=O)c1ccccc1O)Nc1ccc(OC(F)F)cc1	i	0	i	i	-7
COC(=O)Cc1c(C)nc2nc(-c3ccccc3)[nH]n2c1=O	i	2	i	i	-1
COc1ccc(OC)c(CNC(=O)C2CCCN(c3nc4ccccc4o3)C2)c1 (configuration not stated)	.	0	.	.	5
O=C(O)C1CCCCC1C(=O)Nc1ccc(F)cc1F (configuration not stated)	.	-9	.	.	-8
COc1cc(C2N(c3cccc(Cl)c3)C(=O)C3CCCN32)cc(OC)c1OC (configuration not stated)	.	-6	.	.	2
Cc1ccc(-n2c(SCC3CCCCO3)nnc2-c2ccco2)cc1 (configuration not stated)	i	-2	i	i	1
Cc1ccc(Cl)cc1N1CCN(S(=O)(=O)c2c(C)[nH]c(=O)[nH]c2=O)CC1	.	0	.	.	-6
O=c1c2cc(Cl)ccc2nc2ccc(N3CCCC3)nn12	.	-1	.	.	16
Cc1ccc(C2C(C(=O)c3cc4ccccc4o3)=C(O)C(=O)N2CCN2CCOCC2)o1 (configuration not stated)	.	-4	.	.	16
COc1ccccc1S(=O)(=O)Cc1ccc(C(=O)NCc2cccnc2)o1	.	8	.	.	-8
CC(=O)c1cccc(NC(=O)C2CCN(S(=O)(=O)c3c(C)n[nH]c3C)CC2)c1	.	-5	.	.	1
Cc1cc(NC(=O)CSc2nnc(C3CC3)n2C)no1	i	-1	i	i	0
N#CC1=C2SCN(Cc3ccccc3)CN2C(=O)CC1c1cccs1 (configuration not stated)	.	3	.	.	9
O=C(Cn1c(NCCCO)nc2ccccc21)c1cccs1	.	-5	.	.	-2
COC(=O)c1ccccc1CCC(C)=O	.	1	.	.	1
Cn1c(NCc2cccc(Br)c2)nc2ccccc21	i	-6	i	i	-4
CC1CCN(S(=O)(=O)c2ccc3c(c2)oc(=O)n3CC(=O)N2c3ccccc3CC2C)CC1 (configuration not stated)	.	-7	.	.	-1
Cc1sc2nc(SCC(=O)NCc3ccco3)n(CCc3ccccc3)c(=O)c2c1C	i	-5	i	i	6
COC(=O)CC1SCCNC1=O (configuration not stated)	i	-3	i	i	-5
CCn1c(SCC(=O)c2ccc(Cl)cc2)nnc1-c1ccoc1C	i	1	i	i	2
O=C(CSC1=Nc2ccccc2C2=NC(c3ccccc3)C(=O)N12)NCC1CCCO1 (configuration not stated)	.	2	.	.	0
O=C(Nc1nc(-c2ccccc2)cs1)C1CCCCN1S(=O)(=O)c1ccccc1 (configuration not stated)	i	-1	i	i	1
Nc1ncnc2c1ncn2[C@@H]1O[C@H](CO)[C@@H](O)[C@H]1O	i	-1	i	i	2
COc1ccc(CCNC(=O)C2CCN(Cc3nc(-c4ccc(Cl)cc4)oc3C)CC2)cc1OC	.	-1	.	.	-3
Cc1ccc(/C(O)=C2\C(=O)C(=O)N(c3cc(C)on3)C2c2cccc(Cl)c2)cc1 (configuration not stated)	.	-2	.	.	-7
Cc1ccc2c(c1)N(CC(=O)O)C(=O)CO2	.	2	.	.	3
CCOC(=O)c1[nH]c2ccc(Br)cc2c1NC(=O)CNC	i	-3	i	i	6
N#CCCN1CCN(S(=O)(=O)c2ccc(S(=O)(=O)NC3CCCCC3)cc2)CC1	i	-3	i	i	2
CC1=C(C(N)=O)C(c2ccccn2)n2nc(-c3ccccc3Cl)nc2N1 (configuration not stated)	i	1	i	i	-4
O=c1c2cccnc2[nH]c(=S)n1CCC1=CCCCC1	.	12	.	.	14
CCn1nnc(NC(=O)c2ccccc2Br)n1	i	-3	i	i	2
COc1ccc(NC(=O)C2CCCN2S(=O)(=O)c2ccc3c(c2)CCC(=O)N3)c(OC)c1 (configuration not stated)	.	-5	.	.	-5
COc1ccc(C2C(C(=O)NCC3CCCO3)c3cc(OC)c(OC)cc3C(=O)N2C)cc1OC (configuration not stated)	.	-2	.	.	-4
Cc1ccc(C)c(N2CCN(C(=O)CCS(=O)(=O)c3cccc4nonc34)CC2)c1	.	1	.	.	2
CCc1ccccc1NC(=O)c1ccoc1C	i	-2	i	i	4
CCCCc1c(O)nc(SCC(=O)Nc2ccc3c(c2)CCC3)[nH]c1=O	i	1	i	i	6

Quoted at random: 2 compounds from above.
SMILES	VCAM-1 augmentation	FPRL1 binder	VCAM-1 down imaging	VCAM-1 inhibition	FPR binder
CCn1nnc(NC(=O)c2ccccc2Br)n1	i	-3	i	i	2
COC(=O)c1ccccc1CCC(C)=O	.	1	.	.	1

The list continues:
SMILES	VCAM-1 augmentation	FPRL1 binder	VCAM-1 down imaging	VCAM-1 inhibition	FPR binder
Cc1cc(C(=O)NCCN2CCN(c3cccc(Cl)c3)CC2)n(-c2ccccc2)n1	i	-3	i	i	-3
COCCN1CN(S(=O)(=O)c2ccccc2)c2nc3ccccc3nc21	i	2	i	i	0
Cc1cccc(N(C)S(=O)(=O)c2cccc3nsnc23)c1	.	-2	.	.	-4
O=C(NC1CCCC1)C1CC1c1ccccc1 (configuration not stated)	i	46*	i	i	26
O=C1Nc2ccccc2C(O)(C(=O)NCc2ccco2)N1c1ccccc1 (configuration not stated)	.	4	.	.	-4
O=C(Cc1coc(-c2ccc(F)cc2)n1)N1CCOCC1	.	-2	.	.	-3
CCOC(=O)C1CCCN(C(=O)c2cc3c(=O)n(C)c4ccccc4c3n2C)C1 (configuration not stated)	.	-1	.	.	4
Cc1c(OCC(F)(F)F)ccnc1CS(=O)c1nc2ccccc2[nH]1 (configuration not stated)	i	0	i	i	-9
CC(=O)c1c(C)[nH]c(C(=O)Nc2cc(C)ccc2C)c1C	.	0	.	.	-1
COc1cc(-c2nc(Cc3ccccc3Cl)no2)cc(OC)c1OC	.	-7	.	.	0
CCC(=O)N1CCc2cc(S(=O)(=O)CCC(=O)Nc3nc(C)cs3)ccc21	i	5	i	i	-2
O=C(NCCCN1CCCC1)c1ccc(CS(=O)(=O)c2ccc(Br)cc2)o1	.	5	.	.	-8
CCCCC(=O)Nc1ccc2c3c(cccc13)C(=O)N2CC	.	7	.	.	6
N#CC1=C(N)S[C@H](C(=O)C23CC4CC(CC(C4)C2)C3)[C@H]1c1ccncc1	i	-5	i	i	0
COc1ccc2nc(NC(=O)C3CCN(S(=O)(=O)c4cccc5nsnc45)CC3)sc2c1	.	-3	.	.	5
O=C(N1CCOCC1)N1CCN(c2ccccc2F)CC1	.	5	.	.	3
O=C(CCn1cccc1)Nc1ccccc1F	.	1	.	.	0
CC(O)CN1C(=O)C(CC(=O)Nc2ccc(Cl)cc2)SC1=Nc1ccccc1 (configuration not stated)	i	0	i	i	-4
CSc1nnc(-c2nnc(SC)n2-c2ccccc2)n1-c1ccccc1	i	-11	i	i	-3
COC(=O)c1ccccc1NC(=O)CS(=O)(=O)Cc1nc(-c2ccc(C)cc2)oc1C	.	-5	.	.	-7
COc1ccc2nc3oc(C(=O)N4CCN(c5cccc(C(F)(F)F)c5)CC4)cc3cc2c1	.	-5	.	.	-6
COc1cccc(CNC(=O)C2CCN(S(=O)(=O)c3c(C)nn(C)c3C)CC2)c1	.	-11	.	.	2
Cc1cc(NC(=O)CSc2nnc(C)c(=O)[nH]2)no1	.	0	.	.	6
O=C(C1CCCN(S(=O)(=O)c2cccc3nsnc23)C1)N1CCc2ccccc2C1 (configuration not stated)	.	-8	.	.	0
CC(C)OCCCNS(=O)(=O)c1ccc2c(c1)oc(=O)n2C	.	-11	.	.	-6
O=C(C1CCCN(S(=O)(=O)c2cccs2)C1)N1CCc2ccccc2C1 (configuration not stated)	i	0	i	i	-3
Cc1ccc(-c2nn(C)c(=O)c3ccccc23)cc1S(=O)(=O)NCCN1CCOCC1	i	6	i	i	-2
CCNS(=O)(=O)c1ccc(S(=O)(=O)N(Cc2ccccn2)C2CCCCC2)cc1	i	-1	i	i	2
CCn1ncc(C2=NOC(C(=O)Nc3c(C)nn(Cc4ccc(F)cc4)c3C)C2)c1C (configuration not stated)	.	-2	.	.	-2
OCCNc1cc(-n2nc(-c3ccccc3)cc2-c2ccccc2)ncn1	.	-8	.	.	-5
COc1ccc(OC)c(Nc2cc(-c3ccccc3)nc(N)n2)c1	i	-3	i	i	4
CCOC(=O)c1sc(NC(=O)c2c(C)nn(Cc3ccccc3)c2C)cc1C	i	2	i	i	3
CCCCN(C)Cc1c(O)ccc2c(-c3ccccc3)cc(=O)oc12	i	-1	i	i	-2
COc1ccccc1-c1cc(C(=O)NC(C)c2ccccc2)no1 (configuration not stated)	.	-9	.	.	-2
c1ccc(-c2nn3nnnc3c3ccccc23)cc1	i	-3	i	i	0
O=C(C1CCN(S(=O)(=O)c2cccc3nsnc23)CC1)N1CCc2ccccc21	.	-6	.	.	-4
CCN(CC)C(=O)c1ccc(CS(=O)(=O)c2ccc(OC)cc2)o1	i	4	i	i	5
COc1ccc(C(c2nnnn2C2CCCC2)N2CCC(C)CC2)c(OC)c1 (configuration not stated)	i	11	i	i	1
CCOc1ccc2nc(SCC#N)c(C#N)cc2c1	i	12	i	i	-3
O=C(CCCCCN1C(=O)CCC1=O)NCc1ccccc1	i	-1	i	i	1
O=C(Nn1nnnc1Nc1ccccc1)C12CC3CC(CC(C3)C1)C2	.	-2	.	.	1
CC(C)C1C2=C(CC(C)(C)CC2=O)ON1c1ccccc1 (configuration not stated)	i	-1	i	i	-3
CCCCCn1c(CN2CCCCC2C)nc2c1c(=O)n(C)c(=O)n2C (configuration not stated)	.	-4	.	.	-9

Record cards, as listed above. Values in the order: VCAM-1 augmentation, FPRL1 binder, VCAM-1 down imaging, VCAM-1 inhibition, FPR binder
Results for `COc1ccccc1-c1cc(C(=O)NC(C)c2ccccc2)no1` (configuration not stated) : ., -9, ., ., -2
Results for `CCOC(=O)c1sc(NC(=O)c2c(C)nn(Cc3ccccc3)c2C)cc1C` : i, 2, i, i, 3
Results for `COc1ccc(OC)c(Nc2cc(-c3ccccc3)nc(N)n2)c1` : i, -3, i, i, 4
Results for `CCN(CC)C(=O)c1ccc(CS(=O)(=O)c2ccc(OC)cc2)o1` : i, 4, i, i, 5

The list is partial; count on the stated rates, not on these rows.
